# UCH37 DUB inh: human UCH37 deubiquitinating enzyme inhibition | AID 588478 | purified proteasome/UCH37, Ub-AMC cleavage fluorescence | 0.33% of 330,000 active | Q9Y5K5 | inhibition, % (concentration not given with the values);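 active means mean of two replicates above 20%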;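 further: 0% = compound-free wells with enzyme and 100% = wells lacking proteasome; stock transfer was 100 nL into about 20 µL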
# Target sequence (Q9Y5K5 whole entry, looked up): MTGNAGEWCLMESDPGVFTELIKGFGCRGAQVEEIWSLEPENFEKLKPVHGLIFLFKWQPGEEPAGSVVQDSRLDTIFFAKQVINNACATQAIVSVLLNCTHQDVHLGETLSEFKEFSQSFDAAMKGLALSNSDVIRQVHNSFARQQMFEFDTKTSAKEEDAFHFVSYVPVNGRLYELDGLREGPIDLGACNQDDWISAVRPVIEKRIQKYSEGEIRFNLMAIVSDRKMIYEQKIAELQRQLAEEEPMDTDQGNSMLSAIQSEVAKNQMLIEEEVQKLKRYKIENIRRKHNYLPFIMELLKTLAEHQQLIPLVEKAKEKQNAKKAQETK
#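 Test system – human UCH37 enzyme supplied as purified proteasome complex · Incubation – 30 min preincubation with enzyme, 25 min cleavage at room temperature · Detection – AMC fluorescence from Ub-AMC cleavage, excitation 355 nm, emission 460 nm · Benchmarks – no-proteasome wells (full inhibition) and compound-free wells (no inhibition)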
# FGF22 binding: FGF22 (human) thermal shift binding. 1.5% of 340,000 active. Q9HCT0. AID 651658. recombinant FGF22 thermal shift, SYPRO orange fluorescence; percent of sucrose octasulfate shift, DMSO zero. calls only at 9.99 µM;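 active means melting point raised past a set limit in the mean and every replicate; inconclusive means no clear call; three in four hits are not shown here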
# Target sequence (Q9HCT0 whole entry, looked up): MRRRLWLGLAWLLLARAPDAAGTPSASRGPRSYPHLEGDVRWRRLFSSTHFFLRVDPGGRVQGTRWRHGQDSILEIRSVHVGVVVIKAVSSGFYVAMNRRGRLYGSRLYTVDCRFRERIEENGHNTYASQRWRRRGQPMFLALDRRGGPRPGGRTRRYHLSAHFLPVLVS
# Ecoli growth: inhibitors of Escherichia coli growth | OD600, 23 h; stronger effect = lower value | OD600 absorbance (test concentration not listed) | 0.21% of 330,000 active | AID 1053175;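 active means OD600 absorbance below the run mean of sample wells minus 3.6 SD, in any replicate, cut at about 0.56 in these data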;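 further: stock transfer was 300 nL into about 60 µL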
# RanGTP-Imp inh: disruptors of Ran-importin-beta complex formation – biochemical, FRET, CFP-Ran, YFP-importin-beta, homogeneous, primary screen; cell-free CFP-Ran/YFP-importin-beta FRET ratio; inhibition, % (test concentration not listed); 1.1% of 300,000 active;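 active means most replicates above 15%; inconclusive means exactly half above 15%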;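 further: 0% = DMSO wells and 100% = Ran loaded with GDP instead of GTP; wells of about 40 µL received 100 nL stock; the first replicate is given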
# MLL AF4-AF9 inh: blocks AF4 peptide binding to human AF9 | AID 651704 | inhibition, % at 10 µM | P42568 | AlphaScreen, biotin-AF4 peptide binding to FLAG-AF9 | 0.47% of 350,000 active;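 active means every replicate reaching a set inhibition limit, whatever the replicate mean, cut at about 25% in these data; inconclusive means mean inhibition reaches that limit but some replicates miss it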;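 further: 0% = plate neutral control median and 100% = total signal loss; the record names both 10 and 1 µM as test concentration; the first replicate is given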
# Target sequence (P42568 whole entry, looked up): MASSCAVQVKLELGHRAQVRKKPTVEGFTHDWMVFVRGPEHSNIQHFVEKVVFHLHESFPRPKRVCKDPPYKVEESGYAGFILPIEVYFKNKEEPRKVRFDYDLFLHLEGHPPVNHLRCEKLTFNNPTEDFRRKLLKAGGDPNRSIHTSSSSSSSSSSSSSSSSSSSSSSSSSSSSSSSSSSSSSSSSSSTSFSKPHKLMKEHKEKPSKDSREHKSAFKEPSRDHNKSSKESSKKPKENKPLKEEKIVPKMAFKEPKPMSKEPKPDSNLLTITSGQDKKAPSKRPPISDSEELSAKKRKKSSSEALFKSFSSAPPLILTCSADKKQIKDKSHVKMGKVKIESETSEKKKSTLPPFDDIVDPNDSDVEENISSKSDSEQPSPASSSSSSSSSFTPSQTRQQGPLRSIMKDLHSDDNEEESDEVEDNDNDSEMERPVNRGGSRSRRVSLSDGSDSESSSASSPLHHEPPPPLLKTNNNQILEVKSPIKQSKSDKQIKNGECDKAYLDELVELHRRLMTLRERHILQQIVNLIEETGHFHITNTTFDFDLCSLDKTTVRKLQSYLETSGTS
# HNF4A DNA FP: change in binding of human HNF4 alpha to DNA; P41235; HNF4a-FITC DNA binding, fluorescence polarization, 1 h; activity change, % at 10 µM; 0.3% of 360,000 active; AID 1224865; in the data active means activity change above about 30%, passing the limit was not always enough;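 further: controls were the assay level and a saturating level of protein; the project sought stronger binding though the title names inhibitors; some compounds called inactive have numbers as strong as hits; positive values seem to mean higher polarization but the record does not say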
# Vif A3G: HIV-1 Vif–A3G interaction blockers – biochemical, TR-FRET, GST-Vif 1-94, biotin-A3G peptide, dose response retest, primary screen (AID 1117319) | TR-FRET GST-Vif / biotin-A3G peptide binding; higher % means a stronger effect; test concentration not given here; strong numbers were not always called active | inhibition, %; hits with a dose series show IC50 in µM | 0.57% of 260,000 active;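 active means above the screen mean plus three standard deviations and confirmed in dose response; inconclusive means results disagree or hit not tested in dose response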;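 further: Vif residues 1-94 fused to GST binding biotinylated APOBEC3G peptide 110-148; 0% = full assay without inhibitor and 100% = GST in place of GST-Vif; retest series ran down from 100 µM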
# The depositor's hits bear a star; i = inactive; ? = inconclusive; · = not tested or not shown; & = joins results of further samples. Not all compounds are listed (hit frequency here may not be typical).
UCH37 DUB inh,FGF22 binding,Ecoli growth,RanGTP-Imp inh,MLL AF4-AF9 inh,HNF4A DNA FP,Vif A3G,SMILES
2.2,i,0.67,1.1,18,0.3,-8%,CCOC(=O)c1c(C)n(-c2ccccc2)c2ccc(OCCN(C)C)cc12
2.1,i,0.7,-1.0,-2.4,-0.4,12%,CCCC1c2ccsc2CCN1C(=S)NC (centres undefined)
·,i,·,·,-0.6,-3.2,·,COCCNC(=O)C1(C)CCCN(Cc2csc3ccccc23)C1 (centres undefined)
0.0,i,0.71,2.9,-4.6,2.7,·,CCCNS(=O)(=O)c1ccc(OCC(=O)N2CCc3ccccc3C2)c(C)c1
1.3,·,0.71,-4.7,·,2.7,-1%,O=c1sc2ccccc2n1CCCOc1ccccc1
0.1,i,0.66,-0.4,-3.5,1.1,23%,NC(=O)C1CCN(C(=O)COc2ccc(S(=O)(=O)NCc3ccccc3)cc2Cl)CC1
·,i,·,·,7.4,3.2,·,COc1ccc(-c2cc(NC=O)c3ncc(-c4cccc(C(=O)NCCN(C)C)c4)n3c2)c(OC)c1
·,·,·,-1.3,·,-2.1,?,C/C(=N/NC(=O)c1ccccn1)c1ccco1
·,i,·,·,0.2,6.1,·,CCC(C)[C@H]1CNC(=O)C(=O)N1CCc1cccc2ccccc12 (some centres undefined)
-1.9,i,0.69,·,-0.2,-5.3,-7%,Cc1ccccc1NC(=O)COC(=O)[C@@H]1CCCN1C(=O)c1cccs1
1.9,·,0.67,-1.2,·,-0.6,1%,COc1ccc(C(=O)Nc2cc(C(F)(F)F)ccc2-n2cncn2)cc1
5.3,·,0.73,5.6,·,-0.3,7%,CCC(CC)C1C(C#N)=C(N)Oc2n[nH]c(C)c21 (centres undefined)
·,·,·,0.2,·,2.8,-29%,COc1ccc2cc(/C=N/NC(=O)c3ccc(CN(c4cccc(Cl)c4Cl)S(C)(=O)=O)cc3)c(Cl)nc2c1
0.6,i,0.65,-1.8,-9.3,1.5,·,CC(C)(C)c1ccc(C(=O)N2CCC(C(=O)NC3CCCCCC3)CC2)cc1
-2.9,i,0.76,-0.9,-1.7,0.0,·,Fc1cccc(CSc2ccc(-c3ccc4c(c3)OCO4)nn2)c1
·,i,·,1.6,0.8,2.8,8%,C=CCN1C(=O)/C(=c2\sc3nc(=O)c(Cc4ccccc4Cl)nn3c2=O)c2ccccc21
-0.1,i,0.72,1.9,95*,1.2,0.47µM*,CCc1cccc(NC(=O)CCCCCC2NC(=O)NC2C)c1 (centres undefined)
-1.3,i,0.68,3.8,-3.0,2.1,·,COCCN(C(=O)CNC(=O)c1ccco1)C(C(=O)NC1CCCCC1)c1cccnc1 (centres undefined)
-1.7,·,0.67,4.8,·,-2.3,0%,CCCCn1c(SCc2ncc(-c3ccccc3)o2)nc2cc(S(N)(=O)=O)ccc21
-77,·,0.74,?,·,0.9,?,COc1cc2[nH]c(=O)c(C(=O)NCCCN3CCCCC3)c(O)c2cc1OC
-94,i,0.7,-3.1,-11,-0.8,·,CCNC(=S)N(CCCO)Cc1cc2cc3c(cc2[nH]c1=O)OCCO3
3.2,i,0.62,-1.6,16,0.2,5%,CC1CCCN(c2nc(N(C)c3ccccc3)nc(N)c2[N+](=O)[O-])C1 (centres undefined)
3.5,i,0.63,0.6,·,0.8,-9%,CC1CCc2c(sc(NC(=O)CSc3ncn[nH]3)c2C#N)C1 (centres undefined)
0.7,i,0.7,?,-3.3,-0.3,·,CSCC[C@H](NC(=O)[C@H](Cc1ccccc1)n1c(=O)[nH]c2ccccc2c1=O)C(=O)N[C@@H](Cc1ccccc1)C(=O)O

# A draw from above in order of count of non-hydrogen atoms, smallest number first.
UCH37 DUB inh,FGF22 binding,Ecoli growth,RanGTP-Imp inh,MLL AF4-AF9 inh,HNF4A DNA FP,Vif A3G,SMILES
-77,·,0.74,?,·,0.9,?,COc1cc2[nH]c(=O)c(C(=O)NCCCN3CCCCC3)c(O)c2cc1OC
-1.3,i,0.68,3.8,-3.0,2.1,·,COCCN(C(=O)CNC(=O)c1ccco1)C(C(=O)NC1CCCCC1)c1cccnc1 (centres undefined)
0.7,i,0.7,?,-3.3,-0.3,·,CSCC[C@H](NC(=O)[C@H](Cc1ccccc1)n1c(=O)[nH]c2ccccc2c1=O)C(=O)N[C@@H](Cc1ccccc1)C(=O)O

# Not a retest: 2 of the compounds above.
UCH37 DUB inh,FGF22 binding,Ecoli growth,RanGTP-Imp inh,MLL AF4-AF9 inh,HNF4A DNA FP,Vif A3G,SMILES
3.5,i,0.63,0.6,·,0.8,-9%,CC1CCc2c(sc(NC(=O)CSc3ncn[nH]3)c2C#N)C1 (centres undefined)
0.7,i,0.7,?,-3.3,-0.3,·,CSCC[C@H](NC(=O)[C@H](Cc1ccccc1)n1c(=O)[nH]c2ccccc2c1=O)C(=O)N[C@@H](Cc1ccccc1)C(=O)O

# Later entries
UCH37 DUB inh,FGF22 binding,Ecoli growth,RanGTP-Imp inh,MLL AF4-AF9 inh,HNF4A DNA FP,Vif A3G,SMILES
1.7,·,0.69,1.4,·,-3.9,0%,Clc1ccc(-c2nnc3n2CCCS3)cc1
-0.3,i,0.67,-1.7,-25,1.3,-1%,Cc1cc(OCC(=O)OCC(=O)N(C)c2c(N)n(Cc3ccccc3)c(=O)[nH]c2=O)ccc1Cl
1.2,i,0.69,-3.3,-0.5,0.6,·,O=C(NO)c1ccccc1C(F)(F)F
1.0,·,0.71,3.6,·,-3.1,6%,COc1ccc(CN2CC(C(=O)NCCN3CCN(c4ccccc4F)CC3)CC2=O)cc1 (centres undefined)
·,i,·,·,-2.6,-3.5,·,Cc1cnc(CNC(=O)c2ccc3sc([C@@H]4O[C@H](CO)[C@H](O)[C@H](O)[C@H]4O)nc3c2)cn1
4.9,i,0.68,-0.3,-3.1,-3.2,-1%,Cc1nn(Cc2ccc(Cl)cc2)c2sc(C(=O)O)cc12
2.8,·,0.67,3.5,·,-5.8,22%,O=C(COC(=O)Cc1c[nH]c2ccccc12)Nc1cccc2ccccc12
-1.8,i,0.61,-1.4,0.8,0.6,4%,Cn1c(/C(C#N)=C(\O)c2cccc(F)c2)nc2ccccc21
·,i,·,·,0.9,3.3,·,CC1(C(=O)NS(=O)(=O)c2ccc(Cl)cc2)CCN1C(=O)Cc1ccsc1 (centres undefined)
-1.2,i,0.68,·,0.6,5.5,0%,CS(=O)(=O)c1ccc(C(=O)NNC(=O)c2ccccc2-n2cccc2)cc1
2.1,i,0.67,-0.3,0.4,4.9,-2%,CCOc1ccc(S(=O)(=O)N2CCOCC2)cc1NC(=O)CN1C(=O)NC2(CCCC2)C1=O
·,i,·,-1.7,14,-1.9,·,COc1cccc(-c2nn(-c3ccccc3)cc2CN(C)Cc2c(C)nc3ccccn23)c1
6.5,i,0.7,·,-2.2,0.6,·,O=C(COC(=O)C1CCCCC1)Nc1cccc(Br)c1
3.3,·,0.66,-1.9,·,6.5,-4%&-2%,COc1ccc(-n2c(Cc3cccn3C)nnc2SCC(=O)N2CCCc3ccccc32)cc1
0.4,i,0.68,5.1,-1.7,-1.1,1%,COc1cccc(NC(=O)C2CC(=O)N(Cc3ccc(C)cc3)C2)c1 (centres undefined)
-5.1,·,0.77,-0.4,·,4.5,1%,COCCN1CN(S(=O)(=O)c2ccc(Cl)cc2)c2nc3ccccc3nc21
3.1,i,0.63,4.1,2.1,0.4,2%,O=C(Cn1cnc2ccccc2c1=O)NCCC(=O)Nc1ccc(F)cc1
-1.0,i,0.66,1.4,-8.6,-1.0,3%,CC(=O)Nc1ccc(S(=O)(=O)NCC2CCC(C(=O)NCCC3=CCCCC3)CC2)cc1 (centres undefined)
-0.6,i,0.69,-0.3,4.9,2.8,-3%,O=C(CNc1ccc(F)cc1)c1ccccc1
-179,·,0.73,4.2,·,-0.8,20%,CCCC(=O)Nc1c(-c2ccc(OC)cc2)c(=O)c2ccccc2n1C
·,i,·,·,0.7,-0.6,·,CC(C)C[C@H]1CN([C@@H](Cc2ccccc2)CN2CCCC2CN2C(=S)NC[C@@H]2Cc2ccccc2)C(=S)N1CC1CCCCC1 (some centres undefined)
5.1,i,0.7,?,0.4,0.4,·,COc1ccc(NC(=O)CCCNC(=O)Cn2cnc3sc4c(c3c2=O)CCCC4)c(OC)c1
2.3,·,0.69,-3.8,·,-1.8,0%,COc1ccc(C(=O)NCC23C=CC(O2)C2C(=O)N(Cc4ccccc4)C(=O)C23)cc1 (centres undefined)
·,i,·,·,-2.1,0.8,·,CCCCCC(=O)N1C[C@H](O)[C@@H](n2cc(-c3ccc(F)cc3)nn2)C[C@@H]1c1ccc(C)cc1
6.2,i,0.66,0.6,31*,1.1,8%,CC1=CC(C)(C)N2C(=O)C(=O)c3cc(OC(=O)c4ccco4)cc1c32
5.9,i,0.73,-0.6,-13,-0.4,-1%,NC(=S)N=Nc1c(O)n(Cc2ccccc2)c2ccccc12
-6.7,·,0.7,-1.7,·,-0.5,3%,CCOC(=O)CSC1=Nc2ccccc2C2=NC(CC(=O)NCc3cccs3)C(=O)N12 (centres undefined)
·,·,·,-1.7,·,-1.1,2%,C/C(CCc1ccccc1)=N\NC(=O)CCc1ccccc1
0.7,·,0.67,1.3,·,3.8,12%,CCc1c(C(=O)Nc2ncn(Cc3cccc(C)c3)n2)csc1C
3.2,·,0.66,-3.1,·,3.1,·,O=C(CSc1nnc(Nc2ccccc2)s1)NCc1cccs1
·,i,·,-1.0,4.1,-1.7,-3%,COC(=O)c1ccc(N=C2SCC(=O)N2C)cc1
0.5,i,0.66,0.3,-5.5,-4.1,4%,CN1CCN(C(=O)C2CCCN(S(=O)(=O)c3ccc(F)cc3)C2)CC1 (centres undefined)
4.6,i,0.63,1.7,-0.8,-1.2,7%,CCCCCCCc1c(O)nc(SCCN2CCOCC2)[nH]c1=O
2.9,i,0.67,·,4.1,-0.6,25%,CC(Sc1nc(N)cc(N)n1)C(=O)NCCC1=CCCCC1 (centres undefined)
3.8,i,0.5*,·,-17,-0.8,12%,Cc1nnc(SCC2=C(C(=O)O)N3C(=O)C(NC(=O)COc4ccccc4)C3SC2)s1 (centres undefined)
2.6,i,0.71,?,4.0,3.3,-5%,CC(NC(=O)c1cccs1)C(c1cccs1)N1CCN(c2ccccc2)CC1 (centres undefined)
3.1,i,0.7,0.7,-1.3,-2.7,-2%,CC(=O)c1ccc(OCC(=O)NCc2ccc(F)cc2)cc1
1.8,i,0.72,-4.4,-5.7,-1.5,5%,COc1ccccc1OCCOc1ccc(C(=O)c2ccccc2)cc1
6.7,i,0.69,?,-0.1,9.2,26%,CN1CCN(CCC(=O)Nc2ccc(Br)cc2)CC1
7.4,i,0.65,-0.9,-6.2,-0.1,-3%,O=C(/C=C/c1cccs1)Nc1nncs1
2.1,i,0.7,-0.4,-0.5,-0.5,-1%,Cc1ncsc1CCC(=O)N1CCCC(Nc2ccc(F)c(F)c2)C1 (centres undefined)
3.3,·,0.73,-0.5,·,1.4,32%,COc1ccc(NC(=O)c2ccc(NC(=O)COC(=O)CC(NC(=O)c3ccccc3Cl)c3ccccc3)cc2)cc1 (centres undefined)
5.2,i,0.7,-3.8,3.7,1.0,-7%,Nc1cc(-c2ccc(Br)cc2)nn1Cc1ccccc1
-1.2,i,0.68,6.0,1.2,1.4,2%,CC(C(=O)NCC1CCCCC1)N1CCc2ccccc2C1 (centres undefined)
·,i,·,·,4.9,5.5,·,CCn1cc(/C=C(\NC(=O)c2ccccc2)C(=O)NCCN2CCOCC2)c2ccccc21
3.1,·,0.76,-3.0,·,2.0,-3%,Cc1ccc(CNC(=O)CN(C2CCCCC2)S(C)(=O)=O)cc1
4.5,i,0.72,9.8,-0.3,-2.4,·,CC(OC(=O)Cc1coc2cc3c(cc12)CCC3)C(=O)NC(N)=O (centres undefined)
1.3,i,0.71,6.1,-6.5,1.6,-2%,O=C1c2ccc([N+](=O)[O-])cc2C(=O)N1Cc1cccnc1

# Compound activity (PubChem BioAssay)
